Assay outcomes (PubChem)
Yeast UUG start – modulators of start codon recognition fidelity in yeast; actives 0.13% (n = 350,000); S. cerevisiae UUG-firefly luciferase reporter, luminescence/redox ratio; activity score, % at 18.7 µM;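 active means replicate mean at a twofold rise or more, about +100% in these data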;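 further: firefly luciferase made from a UUG start codon reports start codon fidelity; reporter light over untreated wells divided by growth signal over untreated wells; some hits fall short of that in this replicate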
Env fusion inh – blocks HIV Env-driven cell-cell fusion. AID 651610. HeLa-JRFL Env/CEM21 cell fusion, luciferase. actives 1.1% (n = 360,000). inhibition, % at 12.3 µM;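 active means mean replicate inhibition score of at least 50 and every replicate individually at or above 50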;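 further: 0% = plate neutral controls and 100% = maraviroc near 300 nM; one replicate is shown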
The depositor's hits bear a star; [ ] = dose if it differs, or a comment. An excerpt; the hit share may differ from the screen's.

1) C[C@H](CO)N1C[C@H](C)[C@H](CN(C)Cc2ccccc2C(=O)O)Oc2cc(-c3ccccc3)ccc2S1(=O)=O
2) COC(=O)C[C@@H]1CC[C@H]2[C@@H](COC[C@@H](O)CN2C(=O)Nc2cccc(F)c2)O1
3) C[C@H](CO)N1C[C@H](C)[C@H](CN(C)C(=O)Nc2ccc(F)cc2)OCCCC[C@H](C)Oc2ccc(NC(=O)NC3CCCCC3)cc2C1=O
4) O=C(N[C@@H]1CC[C@@H](CCn2cc(Cc3ccccc3)nn2)O[C@@H]1CO)c1ccccn1
5) C[C@@H]1CN([C@H](C)CO)C(=O)c2cccc(NS(=O)(=O)c3cn(C)cn3)c2O[C@@H]1CN(C)Cc1ccc(Cl)c(Cl)c1
6) CC(C)NC(=O)N(C)C[C@H]1Oc2c(NS(=O)(=O)c3ccc(Cl)cc3)cccc2C(=O)N([C@H](C)CO)C[C@@H]1C
7) Cc1noc(C)c1NC(=O)Nc1ccc2c(c1)C(=O)N([C@H](C)CO)C[C@H](C)[C@@H](CN(C)Cc1ccccc1)O2
8) C[C@@H]1CCCCO[C@H](CN(C)Cc2ccc(C(F)(F)F)cc2)[C@H](C)CN([C@@H](C)CO)C(=O)c2cc(NS(=O)(=O)c3cn(C)cn3)ccc2O1
9) C[C@@H]1CCCCO[C@H](CN(C)C(=O)CCC(F)(F)F)[C@@H](C)CN([C@@H](C)CO)C(=O)c2cc(NC(=O)C3CCCCC3)ccc2O1
10) CC(C)CC#Cc1ccc2c(c1)O[C@H](CN(C)C(=O)C1CCOCC1)[C@H](C)CN([C@@H](C)CO)S2(=O)=O

Compound	1	2	3	4	5	6	7	8	9	10
Yeast UUG start	5	1	-4	-14	2	-11	13	8	34	51
Env fusion inh	-49[16.7 µM]	-20[16.7 µM]	-16[16.7 µM]	-34[16.7 µM]	9[16.7 µM]	2[16.7 µM]	-3[16.7 µM]	-36[16.7 µM]	-24[16.7 µM]	-23[16.7 µM]

11) Cc1cc(C(=O)Nc2cccc3c2O[C@H](CN(C)Cc2ccc(Oc4ccccc4)cc2)[C@@H](C)CN([C@H](C)CO)C3=O)n(C)n1
12) C[C@@H]1CN([C@H](C)CO)C(=O)c2cc(NS(=O)(=O)c3ccccc3)ccc2O[C@@H]1CN(C)Cc1ccc(Oc2ccccc2)cc1
13) COc1ccc(S(=O)(=O)N(C)C[C@@H]2Oc3ncc(-c4cccc(OC)c4)cc3C(=O)N([C@H](C)CO)C[C@@H]2C)cc1
14) C[C@H]1CN([C@@H](C)CO)C(=O)c2cc(-c3cncnc3)cnc2O[C@H]1CN(C)C(=O)Cc1ccccn1
15) C[C@@H]1CCCCO[C@@H](CN(C)C(=O)Nc2ccc(C(F)(F)F)cc2)[C@@H](C)CN([C@H](C)CO)C(=O)c2cc(NS(C)(=O)=O)ccc2O1
16) C[C@@H]1CN([C@@H](C)CO)C(=O)c2cccc(NS(=O)(=O)c3ccccc3)c2O[C@@H]1CN(C)Cc1ccc(Cl)c(Cl)c1
17) COc1ccc(CN(C)C[C@H]2Oc3ccc(NC(=O)Nc4ccccc4)cc3CC(=O)N([C@H](C)CO)C[C@H]2C)cc1
18) C[C@@H]1CN([C@H](C)CO)C(=O)c2cc(NS(=O)(=O)c3ccccc3)ccc2O[C@@H](C)CCCCO[C@H]1CN(C)S(=O)(=O)c1cccs1
19) O=C(NCC[C@H]1CC[C@@H](NS(=O)(=O)c2ccc(F)cc2)[C@H](CO)O1)c1ccc2c(c1)OCO2
20) C/C=C/c1ccc2c(c1)O[C@@H](CN(C)S(=O)(=O)c1ccccc1OC)[C@H](C)CN([C@@H](C)CO)S2(=O)=O

Compound	11	12	13	14	15	16	17	18	19	20
Yeast UUG start	12	11	-20	1	-1	-11	-1	-3	-1	24
Env fusion inh	16[16.7 µM]	-9[16.7 µM]	7[16.7 µM]	-5[16.7 µM]	-15[16.7 µM]	73*[16.7 µM]	-2[16.7 µM]	-34[16.7 µM]	6[16.7 µM]	1[16.7 µM]

21) Cc1noc(C)c1S(=O)(=O)N(C)C[C@H]1Oc2ccc(NC(=O)Cn3cnnn3)cc2CC(=O)N([C@@H](C)CO)C[C@H]1C
22) Cc1ccc(-c2cnc3c(c2)C(=O)N([C@H](C)CO)C[C@@H](C)[C@@H](CN(C)Cc2ccccc2F)O3)cc1
23) C[C@H](CO)N1C[C@H](C)[C@@H](CN(C)S(=O)(=O)c2ccc(F)cc2)OCCCC[C@H](C)Oc2ccc(NC(=O)CCC(F)(F)F)cc2C1=O
24) Cc1ccc(S(=O)(=O)Nc2cccc3c2O[C@@H](CN(C)Cc2ccccc2)[C@H](C)CN([C@@H](C)CO)C3=O)cc1
25) CC(C)C#Cc1cnc2c(c1)C(=O)N([C@@H](C)CO)C[C@@H](C)[C@H](CN(C)C(=O)CC1CC1)O2
26) C[C@@H]1CN([C@H](C)CO)S(=O)(=O)c2ccc(C3=CCCC3)cc2O[C@@H]1CN(C)CC1CCCCC1
27) O=C(CCN1CCCCC1)N[C@H]1CC[C@H](CCn2cc(-c3ccc(F)cc3)nn2)O[C@H]1CO
28) COc1ccc(CN2C[C@H](O)COC[C@H]3O[C@H](CC(=O)NCc4ccccc4Cl)CC[C@@H]32)cc1
29) C[C@@H]1CN([C@H](C)CO)C(=O)c2cc(NC(=O)C3CCCCC3)ccc2O[C@H]1CN(C)C
30) C[C@H](CO)N1C[C@H](C)[C@@H](CN(C)C)OCCCC[C@H](C)Oc2ccc(NC(=O)Cc3ccccc3)cc2C1=O

Compound	21	22	23	24	25	26	27	28	29	30
Yeast UUG start	2	-5	9	5	27	32	-1	-20	-14	-15
Env fusion inh	8[16.7 µM]	5[16.7 µM]	-31[16.7 µM]	-18[16.7 µM]	-2[16.7 µM]	2[16.7 µM]	-7[16.7 µM]	17[16.7 µM]	28[16.7 µM]	8[16.7 µM]

Complete entries as entered above:
O=C(NCC[C@H]1CC[C@@H](NS(=O)(=O)c2ccc(F)cc2)[C@H](CO)O1)c1ccc2c(c1)OCO2 across the screens: Yeast UUG start: -1; Env fusion inh: 6[16.7 µM]
COc1ccc(CN2C[C@H](O)COC[C@H]3O[C@H](CC(=O)NCc4ccccc4Cl)CC[C@@H]32)cc1 across the screens: Yeast UUG start: -20; Env fusion inh: 17[16.7 µM]

Next results.
31) COc1ccc(S(=O)(=O)N(C)C[C@@H]2OCCCC[C@@H](C)Oc3ccc(NC(=O)NC(C)C)cc3C(=O)N([C@H](C)CO)C[C@H]2C)cc1
32) C[C@@H]1CN([C@@H](C)CO)C(=O)c2cc(NS(=O)(=O)c3cn(C)cn3)ccc2O[C@@H]1CN(C)CC1CC1
33) C[C@H](CO)N1C[C@H](C)[C@H](CN(C)C(=O)Nc2ccc3c(c2)OCO3)Oc2c(NC(=O)Nc3ccc4c(c3)OCO4)cccc2C1=O
34) Cc1noc(C)c1NC(=O)N[C@@H]1CC[C@@H](CCNC(=O)C2CC2)O[C@H]1CO
35) O=S(=O)(N[C@H]1CC[C@H](CCn2cc(-c3cccc(F)c3)nn2)O[C@@H]1CO)c1ccccc1
36) Cc1ccc(-c2cnc3c(c2)C(=O)N([C@@H](C)CO)C[C@@H](C)[C@H](CN(C)C(=O)Cc2ccncc2)O3)cc1
37) O=C(NCC[C@H]1CC[C@H](NS(=O)(=O)c2cccc(F)c2)[C@@H](CO)O1)c1cnccn1
38) O=C(C[C@H]1CC[C@@H]2[C@H](COC[C@@H](O)CN2CC2CCOCC2)O1)NCC1CC1
39) CO[C@@H]1CN(C)C(=O)c2ccc(NC(=O)c3ccc(Oc4ccccc4)cc3)cc2OC[C@H](C)NC[C@H]1C
40) COc1ccc(S(=O)(=O)Nc2ccc3c(c2)CC(=O)N([C@@H](C)CO)C[C@@H](C)[C@H](CN(C)C(=O)NC(C)C)O3)cc1

Compound	31	32	33	34	35	36	37	38	39	40
Yeast UUG start	-16	-10	13	-9	-1	11	-7	5	-5	1
Env fusion inh	25[16.7 µM]	-1[16.7 µM]	13[16.7 µM]	9[16.7 µM]	5[16.7 µM]	-10[16.7 µM]	-11[16.7 µM]	10[16.7 µM]	22[16.7 µM]	-8[16.7 µM]

41) CN1C(=O)c2cc(NC(=O)Nc3ccc(Cl)cc3)ccc2OC[C@@H]2O[C@H](CC(=O)O)CC[C@H]21
42) CN1C(=O)c2cc(NC(=O)Cc3ccccc3)ccc2OC[C@H]2O[C@@H](CC(=O)NCC3CC3)CC[C@H]21
43) C[C@H]1CN([C@@H](C)CO)C(=O)c2cccc(NS(=O)(=O)c3ccc(F)cc3)c2O[C@@H]1CN(C)S(=O)(=O)c1ccc(F)cc1
44) C[C@@H]1CCCCO[C@@H](CN(C)C(=O)CCCN(C)C)[C@@H](C)CN([C@H](C)CO)C(=O)c2cc(NS(C)(=O)=O)ccc2O1
45) C[C@H](CO)N1C[C@H](C)[C@@H](CN(C)Cc2ccc(C(=O)O)cc2)Oc2ncc(C#CCN(C)C)cc2C1=O
46) COc1ccc(NC(=O)N(C)C[C@H]2OCCCC[C@@H](C)Oc3ccc(NC(=O)Nc4c(C)noc4C)cc3C(=O)N([C@H](C)CO)C[C@@H]2C)cc1
47) CN1C(=O)c2cc(NC(=O)C3CCOCC3)ccc2OC[C@H]2O[C@H](CC(=O)NCc3ccccc3F)CC[C@@H]21
48) CCCC(=O)Nc1ccc2c(c1)C(=O)N(C)C[C@@H](OC)[C@H](C)CN(C(=O)c1ccccc1F)[C@H](C)CO2
49) Cc1ccc(S(=O)(=O)N(C)C[C@@H]2Oc3c(NC(=O)Nc4ccc5c(c4)OCO5)cccc3C(=O)N([C@H](C)CO)C[C@@H]2C)cc1
50) CC(C)NC(=O)Nc1ccc2c(c1)CC(=O)N([C@@H](C)CO)C[C@H](C)[C@@H](CN(C)S(=O)(=O)c1cccs1)O2

Compound	41	42	43	44	45	46	47	48	49	50
Yeast UUG start	1	2	2	-4	47	9	5	2	-11	3
Env fusion inh	30[16.7 µM]	-4[16.7 µM]	-10[16.7 µM]	-4[16.7 µM]	-2[16.7 µM]	8[16.7 µM]	14[16.7 µM]	7[16.7 µM]	-13[16.7 µM]	-4[16.7 µM]

51) C[C@H](CO)N1C[C@H](C)[C@H](CN(C)Cc2ccccc2)OCCCC[C@H](C)Oc2ccc(NS(=O)(=O)c3ccc(F)cc3)cc2C1=O
52) Cc1noc(C)c1NC(=O)N(C)C[C@@H]1Oc2ncc(C#CCN(C)C)cc2C(=O)N([C@@H](C)CO)C[C@@H]1C
53) C[C@@H]1CN([C@H](C)CO)C(=O)c2cccc(NS(=O)(=O)c3cn(C)cn3)c2O[C@H]1CN(C)C(=O)Nc1ccccc1
54) N#C[C@@H]1[C@@H](c2ccc(C#CC3CCCCC3)cc2)[C@@H](CO)N1C(=O)Cc1ccccn1
55) Cc1noc(C)c1NC(=O)N(C)C[C@H]1Oc2c(NS(=O)(=O)c3cn(C)cn3)cccc2C(=O)N([C@@H](C)CO)C[C@@H]1C
56) COc1ccccc1NC(=O)N1C[C@@H](O)COC[C@H]2O[C@@H](CC(=O)NCCc3ccncc3)CC[C@@H]21
57) CCCC#Cc1ccc2c(c1)O[C@@H](CN(C)CCC)[C@@H](C)CN([C@H](C)CO)S2(=O)=O
58) C[C@H](CO)N1C[C@H](C)[C@@H](CN(C)S(=O)(=O)c2cn(C)cn2)Oc2ccc(NC(=O)Cc3ccccc3)cc2CC1=O
59) C[C@H]1CCCCO[C@H](CN(C)CC2CCCCC2)[C@@H](C)CN([C@@H](C)CO)C(=O)c2cc(NS(=O)(=O)c3ccc(Cl)cc3)ccc2O1
60) C=CCNC(=O)[C@@H]1[C@H]2C(=O)O[C@H](c3ccccc3)[C@H](c3ccccc3)N2[C@H](c2ccccc2OCCO)[C@@]12C(=O)Nc1ccc(C#CCNC(N)=O)cc12

Compound	51	52	53	54	55	56	57	58	59	60
Yeast UUG start	235*	1	-2	-10	-6	13	5	11	19	7
Env fusion inh	-19[16.7 µM]	-12[16.7 µM]	-19[16.7 µM]	5[16.7 µM]	19[16.7 µM]	1[16.7 µM]	-17[16.7 µM]	7[16.7 µM]	19[16.7 µM]	-5[16.7 µM]

61) C/C=C/c1ccc2c(c1)O[C@H](CN(C)Cc1ccccc1)[C@@H](C)CN([C@@H](C)CO)S2(=O)=O
62) CCC(=O)Nc1ccc2c(c1)C(=O)N(C)[C@@H]1CC[C@@H](CC(=O)N[C@@H](C)c3ccccc3)O[C@H]1CO2
63) C[C@@H]1CN([C@@H](C)CO)C(=O)c2cc(C3=CCCC3)cnc2O[C@@H]1CN(C)Cc1cccc(F)c1
64) COCc1cn(CC[C@H]2CC[C@H](NC(=O)c3ccncc3)[C@H](CO)O2)nn1
65) C[C@H]1CN([C@@H](C)CO)C(=O)c2cc(N(C)C)ccc2O[C@H]1CN(C)C

Compound	61	62	63	64	65
Yeast UUG start	-10	-10	11	-3	-4
Env fusion inh	2[16.7 µM]	-5[16.7 µM]	-10[16.7 µM]	10[16.7 µM]	2[16.7 µM]
